AF4-AF9 inh: blocks AF4 peptide binding to human AF9; P42568; AlphaScreen, biotin-AF4 peptide binding to FLAG-AF9; 350,000 tested, 0.47% active; AID 651704; inhibition, % at 10 µM;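 active = every replicate reaching a set inhibition limit, whatever the replicate mean, cut at about 25% in these data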;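 also: 0% = plate neutral control median and 100% = total signal loss; the record names both 10 and 1 µM as test concentration; the first replicate is given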
Target sequence (P42568 whole entry, looked up): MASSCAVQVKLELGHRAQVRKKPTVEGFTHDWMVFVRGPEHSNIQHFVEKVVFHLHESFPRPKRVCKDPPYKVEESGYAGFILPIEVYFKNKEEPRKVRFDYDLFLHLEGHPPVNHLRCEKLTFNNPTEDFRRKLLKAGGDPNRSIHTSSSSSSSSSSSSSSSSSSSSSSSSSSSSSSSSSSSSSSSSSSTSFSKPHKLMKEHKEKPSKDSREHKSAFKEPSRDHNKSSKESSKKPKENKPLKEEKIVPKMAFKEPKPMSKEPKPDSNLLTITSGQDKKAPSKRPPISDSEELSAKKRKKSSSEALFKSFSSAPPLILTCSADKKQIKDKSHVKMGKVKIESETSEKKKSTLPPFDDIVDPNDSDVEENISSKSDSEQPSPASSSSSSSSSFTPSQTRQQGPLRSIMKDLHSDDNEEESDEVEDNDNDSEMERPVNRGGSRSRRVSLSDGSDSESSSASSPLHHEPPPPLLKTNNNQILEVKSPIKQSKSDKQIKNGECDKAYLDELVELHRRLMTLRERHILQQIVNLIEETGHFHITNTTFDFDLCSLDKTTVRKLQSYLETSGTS
Ecoli rRNA inh: inhibitors of bacterial rRNA selective over humanized ribosomes. E. coli WT GFP vs humanized-ribosome RFP mutants, fluorescence, 24 h; hits give low values; DMSO median 0, no signal -100. GFP signal change (wild-type ribosome), % (concentration not given with the values). 350,000 tested, 1.6% active. AID 720706;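 active = significant combined selectivity score with lowered wild-type GFP, culture density cut under 30%, mutant RFP and density less affected; inactive = any of these conditions unmet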; also: one replicate is shown; some compounds called inactive have numbers as strong as hits
FGF22 binding: shifts melting point of recombinant human FGF22 | Q9HCT0 | recombinant FGF22 thermal shift, SYPRO orange fluorescence; percent of sucrose octasulfate shift, DMSO zero | calls only at 9.99 µM | 340,000 tested, 1.5% active | AID 651658;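 active = melting point raised past a set limit in the mean and every replicate; three in four hits are not shown here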
Target sequence (Q9HCT0 whole entry, looked up): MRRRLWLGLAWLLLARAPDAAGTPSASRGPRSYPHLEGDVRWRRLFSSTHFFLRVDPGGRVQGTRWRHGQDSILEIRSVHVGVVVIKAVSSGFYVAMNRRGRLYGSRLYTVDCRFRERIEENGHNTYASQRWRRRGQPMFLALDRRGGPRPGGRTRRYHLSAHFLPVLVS
Ecoli rRNA inh OD600: second read-out of Ecoli rRNA inh, no call of its own (marks repeat the call); OD600 change, %; measured here: OD600 growth;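 optical density of the mix in the first replicate; 0 = DMSO median and -100 = no signal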
Ecoli rRNA inh RFP: recorded beside Ecoli rRNA inh, whose call it bears; RFP signal change, %; measured here: RFP humanized mutant strains;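 first replicate; 0 = DMSO median and -100 = no signal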
* marks the source's active call; other numbers are inactive results; i = inactive; / = no result given; + = active, no number; & = joins results of further samples.

canonical_smiles	AF4-AF9 inh	Ecoli rRNA inh	Ecoli rRNA inh OD600	Ecoli rRNA inh RFP	FGF22 binding
CNC[C@@H]1Oc2ccc(NC(=O)CCN3CCOCC3)cc2C(=O)N([C@H](C)CO)C[C@@H]1C	-19	6	14	-3.1	i
CCN(C[C@H]1N[C@H](CO)[C@H]1c1ccc(-c2ccc(F)cc2)cc1)C(=O)COC	4.2	-3	-1	-1.2	i
COC(=O)[C@@]1(Cc2ccc(F)cc2)[C@H]2c3cc(C(=O)N(C)C)n(CCO)c3C[C@H]2CN1C(=O)c1ccccc1	0.8	20	7	3.6	i
COc1ccc(NC(=O)N[C@H]2C=C[C@@H](CC(=O)NC3CCCCC3)O[C@H]2CO)cc1	-1.9	5	4	-1.2	i
C[C@@H]1CN([C@H](C)CO)C(=O)Cc2cc(NC(=O)Cn3cnnn3)ccc2O[C@H]1CN(C)Cc1ccc(C(=O)Nc2ccccc2N)cc1	-2.3	-3	0	1.0	i
CCC(=O)N1C[C@H](C)[C@H](OC)CN(C)C(=O)c2ccc(NC(=O)Nc3ccc(Cl)cc3)cc2OC[C@H]1C	3.3	-9	-12	2.2	i
CN1C(=O)c2cc(NC(=O)C3CCCCC3)ccc2OC[C@@H]2O[C@H](CC(=O)NCC3CCCCC3)CC[C@H]21	-2.5	0	-11	10	i
C/C=C/c1ccc2c(c1)O[C@@H](CN(C)S(C)(=O)=O)[C@H](C)CN([C@H](C)CO)S2(=O)=O	-0.3	-3	-6	-1.8	i
COCC(=O)N1[C@H](CO)[C@@H](c2ccc(-c3cccc(F)c3)cc2)C12CN(C(=O)C1CC1)C2	0.4	-3	-1	2.5	i
Cc1ccc2oc3ccccc3c(=O)c2c1	-0.5	8	12	-0.2	i
COc1ccc(C2CC=C(C(C)=O)CN2S(=O)(=O)c2ccc(Cl)cc2)cc1 (stereo not given)	-2.1&0.1	5&-6	-26&-24	4.0&-9.8	i
NC(COCc1ccccc1)c1csc(NC(=O)Nc2cccc(Cl)c2)n1 (stereo not given)	10	-64	-82	-19	i
CC(C)NC(=O)N(C)C[C@@H]1Oc2c(NC(=O)c3ccc(-c4nccs4)cc3)cccc2C(=O)N([C@H](C)CO)C[C@@H]1C	-16	-7	-5	2.9	i
O=S(=O)(N[C@@H]1CC[C@H](CCn2cc(C3CC3)nn2)O[C@@H]1CO)c1ccc(F)cc1	-4.9	4	-1	-1.0	i
CC=Cc1ccc2n(c1=O)C[C@H]1[C@H](CO)[C@@H](C(=O)NCCC)[C@@H]2N1C(=O)C1CC1 (mixture of isomers)	1.9	3	6	-1.2	i
CCOC(=O)C1=CN(Cc2cccc(-c3cccnc3)c2)S(=O)(=O)N(C)C1C (stereo not given)	1.4	-43	-53	-8.5	i
COc1ccccc1C#Cc1ccc2c(c1)O[C@@H](CN(C)Cc1ccncc1)[C@@H](C)CN([C@H](C)CO)S2(=O)=O	0.2	-2	2	-11	i
CO[C@@H]1CN(C)C(=O)c2ccc(NS(C)(=O)=O)cc2OC[C@@H](C)N(S(=O)(=O)CC(F)(F)F)C[C@H]1C	1.2	-1	-2	-1.9	i
C[C@H]1CN([C@@H](C)CO)S(=O)(=O)c2ccc(C3=CCCCC3)cc2O[C@H]1CN(C)C(=O)C1CCOCC1	2.0	1	-5	1.4	i
Cc1noc(C)c1S(=O)(=O)N(C)C[C@H]1Oc2ccc(NS(=O)(=O)c3ccc(Cl)cc3)cc2CC(=O)N([C@H](C)CO)C[C@H]1C	2.1	-2	-11	1.2	i
COc1ccc(NC(=O)Nc2ccc3c(c2)C(=O)N([C@@H](C)CO)C[C@@H](C)[C@@H](CN(C)CC2CCCCC2)OCCCC[C@@H](C)O3)cc1	-3.1	-12	-30	17	i
CC[C@]12c3[nH]c4ccc(OC)cc4c3CCN1C(=O)C(CC(=O)NCC13CC4CC(CC(C4)C1)C3)C[C@@H]2C(=O)N1CCN(C(=O)C2CC2)CC1 (stereo not given in full)	19	4	4	20	i
CO[C@@H]1CN(C)C(=O)c2ccc(NC(=O)C3CC3)cc2OC[C@@H](C)N(Cc2cccc(F)c2)C[C@H]1C	-2.4	-5	-15	2.8	i
COC(=O)C1=C(C)N(Cc2cccc(C(F)(F)F)c2)C(=NCc2ccccc2C(F)(F)F)NC1c1ccc(Cl)cc1 (stereo not given)	-3.3	3	-6	10	/
COc1cc(C(O)c2nc(/C=C/c3ccccc3)cs2)ccc1F (stereo not given)	-3.7	-39	-74	5.8	i
O=C(Nc1ccccc1)N1C[C@@H]2[C@H](c3ccccc31)[C@H](CO)N2Cc1ccccc1Cl	-3.2	-15	-17	-7.7	i
CC1(C(=O)NS(=O)(=O)c2cccc(Cl)c2)CCN1C(=O)C1CCCCC1 (stereo not given)	6.0	25	11	-1.8	i
O=C(N[C@@H]1CC[C@H](CCn2cc(C3(O)CCCC3)nn2)O[C@H]1CO)C1CCCC1	-0.5	2	-1	-1.1	i
C[C@H](CO)N1C[C@H](C)[C@H](CN(C)C(=O)[C@H](C)c2ccccc2)OCc2ccccc2-c2c(n(C)c3ccccc23)C1=O	3.6	-3	-5	-0.7	i
CCCNC(=O)Nc1ccc2c(c1)C(=O)N(C)C[C@H](OC)[C@@H](C)CN[C@H](C)CO2	-3.3	2	5	-0.9	i
COc1cccc(S(=O)(=O)N2C[C@H](O)COC[C@@H]3O[C@@H](CC(=O)N4CCN(C)CC4)CC[C@H]32)c1	-2.0	5	6	-3.5	i
NC1(C(=O)O)CSSC1	48*	1	8	-2.0	i
CO[C@H]1CN(C)C(=O)c2cc(NC(C)=O)ccc2OC[C@@H](C)N(Cc2cncnc2)C[C@@H]1C	-5.1	2	2	-2.9	i
C[C@@H]1CN([C@H](C)CO)C(=O)c2cc(C#Cc3ccccc3)cnc2O[C@@H]1CN(C)CC1CCOCC1	3.0	4	8	-3.6	i
CCOC(=O)C1CCCN(C(=O)c2oc3ccccc3c2C)CC1 (stereo not given)	-3.6	-20	-22	0.9	i
C[C@H]1CCCCO[C@@H](CN(C)C(=O)Nc2ccc(C(F)(F)F)cc2)[C@@H](C)CN([C@@H](C)CO)C(=O)c2cc(NC(=O)CCC(F)(F)F)ccc2O1	-1.0	3	7	1.4	i
CC(NC(=O)COC(=O)C1CCN(c2ccc(C(F)(F)F)cn2)CC1)c1ccccc1 (stereo not given)	-4.0	-12	-24	-5.0	i
C/C=C/c1ccc2c(c1)[C@@H]1[C@@H](CCN1C(=O)Cc1cccnc1)[C@@H](CO)N2C	-0.4	3	9	-1.3	i
Cc1ccc(-c2ccc3c(c2)O[C@H](CN(C)C(=O)NC(C)C)[C@H](C)CN([C@@H](C)CO)S3(=O)=O)cc1	-0.3	1	5	0.4	i
CCN(CC)C(=O)[C@H]1C[C@H](CC(=O)NC(C)(C)C)C(=O)N2CCc3c([nH]c4ccc(Cl)cc34)[C@]12C	1.2	9	2	1.7	i
COc1ccc2c3c([nH]c2c1)[C@H](CO)N(Cc1ccccc1Cl)CC31CN(C(=O)C2CC2)C1	0.6	-7	-9	-0.6	i
CCNC(=O)C1(C)CCN(Cc2ccc(OC(F)(F)F)cc2)C1 (stereo not given)	-1.4	11	12	0.6	+
C[C@H]1CN([C@@H](C)CO)C(=O)c2cccc(NC(=O)c3nc4ccccc4s3)c2O[C@H]1CN(C)S(=O)(=O)c1ccc(F)cc1	-0.5	-6	-7	-1.5	i
CCCNC(=O)N1CCC2(CC1)CN(C(=O)CCC)[C@@H](CO)c1[nH]c3cc(OC)ccc3c12	-6.0	-2	10	0.7	i
Cc1noc(C)c1S(=O)(=O)Nc1ccc2c(c1)C(=O)N([C@@H](C)CO)C[C@@H](C)[C@@H](CN(C)S(=O)(=O)c1ccc(Cl)cc1)OCCCC[C@@H](C)O2	4.9	2	7	-2.7	i
C[C@H]1CN([C@@H](C)CO)S(=O)(=O)c2ccc(-c3ccccc3)cc2O[C@H]1CN(C)C(=O)Cc1ccccc1	1.9	-17	-47	36	i
CCOc1ccc(OCC)c(NC(=O)C2C3C=CC(O3)C2C(=O)O)c1 (stereo not given)	2.1	0	15	2.5	i
COc1ccc(S(=O)(=O)Nc2ccc3c(c2)C(=O)N([C@@H](C)CO)C[C@@H](C)[C@H](CN(C)Cc2ccc(-c4ccccc4)cc2)O3)cc1	-0.7	5	-1	4.1	i
C[C@@H]1CN([C@@H](C)CO)C(=O)Cc2cc(NS(=O)(=O)c3cccs3)ccc2O[C@H]1CN(C)Cc1ccc(C(F)(F)F)cc1	2.7	-4	-10	6.0	i
CCOC(=O)CC[C@H](NC(=O)Cn1cc(C)c(=O)[nH]c1=O)C(=O)OCC	-1.3	-6	10	4.7	i
C[C@@H](NC(=O)C[C@H]1CC[C@@H]2[C@H](COC[C@H](O)CN2C)O1)c1ccccc1	-2.4	-4	-2	-0.6	i
COc1ccc(NC(=O)C2CCN(S(=O)(=O)c3ccc(Cl)c(C(F)(F)F)c3)CC2)cn1	-9.4	12	17	3.6	i
C[C@@H]1CN([C@H](C)CO)C(=O)c2cccc(NS(C)(=O)=O)c2O[C@@H]1CN(C)Cc1ccncc1	1.0	2	8	-2.0	i
Cc1ccc(S(=O)(=O)Nc2ccc3c(c2)C(=O)N([C@@H](C)CO)C[C@@H](C)[C@H](CN(C)Cc2ccccc2)OCCCC[C@H](C)O3)cc1	0.8	-2	2	-3.3	i
CC(C)NC(=O)Nc1ccc2c(c1)C(=O)N([C@@H](C)CO)C[C@H](C)[C@@H](CN(C)C(=O)Nc1ccc3c(c1)OCO3)OCCCC[C@@H](C)O2	-0.4	0	2	-2.0	i
O=C(NCC[C@H]1CC[C@H](NC(=O)c2cnccn2)[C@H](CO)O1)Nc1ccc(Cl)cc1	11	-57	-69	-6.6	i

(list continues)
canonical_smiles	AF4-AF9 inh	Ecoli rRNA inh	Ecoli rRNA inh OD600	Ecoli rRNA inh RFP	FGF22 binding
CC/C(=C\c1ccc(N(C)C)cc1)c1ccncc1	28*	-55	-71	-15	i
CCN(C(=O)COC(=O)COc1ccc2c(c1)CCC2)c1c(N)n(Cc2ccccc2)c(=O)[nH]c1=O	11	8	14	0.4	i
C[C@@H]1CN([C@@H](C)CO)C(=O)c2cc(NS(C)(=O)=O)ccc2O[C@@H]1CN(C)S(=O)(=O)c1cn(C)cn1	-2.1	3	12	-1.5	i
CCCNC(=O)C1(C)CCN(C(=O)COc2ccc(Cl)cc2Cl)C1 (stereo not given)	1.2	4	10	0.9	i
COc1cccc(NC(=O)N(C)C[C@@H]2OCc3cn(nn3)CCCC(=O)N([C@@H](C)CO)C[C@H]2C)c1	-0.2&-2.1	0&7	8&10	-0.4&-1.2	i
C[C@@H]1CN([C@@H](C)CO)C(=O)c2cc(NC(=O)Nc3ccc(F)cc3)ccc2O[C@@H](C)CCCCO[C@H]1CN(C)Cc1ccc(Cl)c(Cl)c1	0.2	3	-1	0.6	i
CCNC(=O)[C@@H]1[C@@H](CO)[C@@H]2Cn3c(ccc(-c4ccccc4)c3=O)[C@@H]2N1Cc1cc(F)ccc1F	0.5	-6	-9	1.8	i
COc1ccccc1CNC(=O)C[C@H]1CC[C@@H](NC(C)=O)[C@H](CO)O1	-2.7	2	3	-1.4	i
COc1ccccc1-c1ccc([C@H]2[C@@H](CO)N3CCCCN(C(=O)c4cccnc4)C[C@@H]23)cc1	-1.1	-6	8	0.4	i
C[C@H](CO)N1C[C@H](C)[C@@H](CN(C)S(=O)(=O)c2ccc(Cl)cc2)Oc2c(cccc2N(C)C)C1=O	0.7	-7	-12	4.0	i
CCC(=O)N1C[C@@H](C)[C@H](OC)CN(C)C(=O)c2cc(NC(=O)NC3CCCC3)ccc2OC[C@H]1C	-2.8	2	5	-1.5	i

Looked up by structure from the entries so far:
canonical_smiles	AF4-AF9 inh	Ecoli rRNA inh	Ecoli rRNA inh OD600	Ecoli rRNA inh RFP	FGF22 binding
COc1ccccc1CNC(=O)C[C@H]1CC[C@@H](NC(C)=O)[C@H](CO)O1	-2.7	2	3	-1.4	i
CCCNC(=O)C1(C)CCN(C(=O)COc2ccc(Cl)cc2Cl)C1 (stereo not given)	1.2	4	10	0.9	i
CC/C(=C\c1ccc(N(C)C)cc1)c1ccncc1	28*	-55	-71	-15	i
C[C@@H]1CN([C@@H](C)CO)C(=O)c2cc(NC(=O)Nc3ccc(F)cc3)ccc2O[C@@H](C)CCCCO[C@H]1CN(C)Cc1ccc(Cl)c(Cl)c1	0.2	3	-1	0.6	i
CCC(=O)N1C[C@@H](C)[C@H](OC)CN(C)C(=O)c2cc(NC(=O)NC3CCCC3)ccc2OC[C@H]1C	-2.8	2	5	-1.5	i

These rows are one share of the data, so the mix of outcomes need not match the whole.
